Bioassay records from PubChem.
HIV Env fusion = HIV envelope-mediated fusion inhibition. AID 651610. HeLa-JRFL Env/CEM21 cell fusion, luciferase. inhibition, % at 12.3 µM. hit rate 1.1% among 360,000;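 active = mean replicate inhibition score of at least 50 and every replicate individually at or above 50; inconclusive = only one of the two criteria met; inactive = mean below 50 and not all replicates reaching 50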;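 also: 0% = plate neutral controls and 100% = maraviroc near 300 nM; one replicate is shown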
eIF4H inh = inhibitors of RNA binding by human eIF4H | Q15056 | hit rate 0.94% among 290,000 | inhibition, % at 35 µM | eIF4H fluorescence polarization binding assay;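 active = 50% or more with normal probe brightness, or confirmed in later tests; inconclusive = above 50% with abnormal brightness, or retests that disagree; inactive = below 50% or failed in later tests; about a fifth of its hits are not listed in these tables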;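 also: calls also rest on retests at 20 µM and on dose response follow-up; 0% = protein and probe with vehicle and 100% = probe without protein; strong numbers were not always called active; many hits fall short of the cut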
MT1-MMP act inh = MT1-MMP (human) activation inhibition; hit rate 0.061% among 360,000; GFP/RFP ratio change, % at 20 µM; AID 651647; HT1080 RFP-PRO-GFP cells, GFP/RFP ratio fluorescence, overnight; percent of plate control window, DMSO zero; P50281;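 active = GFP/RFP ratio change of at least 30% with cell ATP level not reduced by more than half and red fluorescence within 50% of control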; also: strong numbers were not always called active
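Read-out: GFP/RFP fluorescence ratio; Test system: RFP-PRO-GFP reporter HT1080 cells; Compound dosing: single-point 20 µM compound, 1% DMSO; Times: overnight compound exposure at 37 °C.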
PABP polyA inh = blocks human PABP binding to poly(A) RNA; hit rate 1% among 290,000; fluorescence polarization; AID 2014; inhibition, % at 35 µM;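 active = 50% or more with normal probe brightness, or confirmed in later tests; inconclusive = above 50% with abnormal brightness, or retests that disagree; inactive = below 50% or failed in later tests; about a fifth of its hits are not listed in these tables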;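 also: calls also rest on retests at 20 µM and on dose response follow-up; controls were probe without protein and protein plus probe with vehicle; some compounds called inactive have numbers as strong as hits; many hits fall short of the cut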
Target sequence (P11940 whole entry, looked up): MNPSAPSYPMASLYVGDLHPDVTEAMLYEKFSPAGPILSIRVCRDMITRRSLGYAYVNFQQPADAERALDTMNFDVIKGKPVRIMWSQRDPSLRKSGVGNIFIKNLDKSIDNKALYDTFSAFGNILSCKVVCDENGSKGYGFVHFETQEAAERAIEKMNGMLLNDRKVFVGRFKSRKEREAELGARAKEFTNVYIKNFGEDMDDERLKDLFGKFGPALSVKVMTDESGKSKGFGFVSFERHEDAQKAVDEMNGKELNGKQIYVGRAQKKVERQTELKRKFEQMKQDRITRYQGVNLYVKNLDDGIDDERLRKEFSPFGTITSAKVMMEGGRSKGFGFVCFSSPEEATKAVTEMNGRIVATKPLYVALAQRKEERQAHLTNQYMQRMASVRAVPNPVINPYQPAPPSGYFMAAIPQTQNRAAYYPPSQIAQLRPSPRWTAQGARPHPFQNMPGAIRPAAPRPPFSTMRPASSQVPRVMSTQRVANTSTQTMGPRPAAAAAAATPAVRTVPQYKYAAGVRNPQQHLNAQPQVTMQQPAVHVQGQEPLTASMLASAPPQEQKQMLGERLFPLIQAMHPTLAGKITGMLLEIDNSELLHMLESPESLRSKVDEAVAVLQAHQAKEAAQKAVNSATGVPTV
CSC inhib = cancer stem cell inhibition; inhibition, % at 7.5 µM; hit rate 1.1% among 300,000; AID 2717; cancer stem cell-like cells viability, luminescence;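 active = mean at 75% or more and at least half the replicates too; inconclusive = mean and replicates disagree; tested in HMLE shEcad cells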;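 also: 0% = median of negative and 100% = median of positive control wells; the first replicate is given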
Rce1 inh = inhibitors of yeast Ras-converting enzyme; yeast membranes, quenched prenylated peptide cleavage fluorescence; hit rate 0.27% among 290,000; calls only; Q03530;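 active = fall in fluorescence gain of 50% or more versus controls, with final raw signal at or below 3038400; inconclusive = same 50% fall but final raw signal above 3038400; inactive = fall in fluorescence gain under 50%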;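 also: plate controls were neutral control wells for no effect and wells lacking membranes for full effect; tested at 10 µM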
Yeast UUG start = modulators of start codon recognition fidelity in yeast; S. cerevisiae UUG-firefly luciferase reporter, luminescence/redox ratio; activity score, % at 18.7 µM; hit rate 0.13% among 350,000;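 active = replicate mean at a twofold rise or more, about +100% in these data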;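 also: firefly luciferase made from a UUG start codon reports start codon fidelity; reporter light over untreated wells divided by growth signal over untreated wells; some hits fall short of that in this replicate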
eIF4H inh retest = also measured in eIF4H inh; calls as there; inhibition, %; compound at 20 µM; confirmation average;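 mean of two retest wells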
PABP polyA inh retest = recorded beside PABP polyA inh, whose call it bears; inhibition, %; compound at 20 µM; confirmation repeats;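 mean of two retest wells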
MT1-MMP act inh RFP = recorded beside MT1-MMP act inh, whose call it bears; RFP signal change, %; measured here: RFP expression control read;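 0 = vehicle wells; hits needed this value within 50% of zero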
The depositor's hits bear a star; i = inactive; ? = inconclusive; nt = not tested or not shown.

SMILES	HIV Env fusion	eIF4H inh	MT1-MMP act inh	MT1-MMP act inh RFP	PABP polyA inh	CSC inhib	Rce1 inh	Yeast UUG start	others
Cc1ccc(/C=C2/SC(=S)N(CCC(=O)N3CCN(C)CC3)C2=O)cc1	0	-6	1	-1	-11	53	i	nt
O=C(N/N=C/c1ccc([N+](=O)[O-])o1)c1ccccc1NS(=O)(=O)c1cccs1	1	76	-8	-20	47*	4	i	-20	eIF4H inh retest=33;PABP polyA inh retest=91*
CC(C)C(NC(=O)C1CCCCC1)C(=O)Nc1ccncc1 (stereo not drawn)	nt	-5	3	5	-2	-5	i	3
Cc1n[nH]c(=O)c2ccccc12	10	4	-1	-2	7	2	i	1
c1ccc(-c2noc(-c3ccc4c(c3)OCO4)n2)nc1	nt	-2	1	4	3	95*	i	nt
CCOc1ccccc1NC(=O)CSc1nnc(-c2cccnc2)o1	-8	nt	2	2	nt	nt	i	-23
CCC(=O)OC1(C)C(=O)C=C2C=C(c3ccc(C#N)cc3)OC=C2C1=O (stereo not drawn)	15	nt	0	4	nt	18	i	-2
Cc1ccc(-n2cc(CN(C)Cc3ncc[nH]3)c(-c3cccc(C)c3)n2)cc1	20	2	4	-5	0	7	i	nt
CCOC(=O)NN=C1CN(S(=O)(=O)c2ccc(C)cc2)C1	-6	-5	1	1	1	-15	nt	0
C#CCOCCOCCOCCNc1nc(N2CCN(C(=O)[C@H](CCC(=O)O)n3cc(C(N)CO)nn3)CC2)nc(N2CCN(C(=O)[C@H](Cc3ccc(O)cc3)n3cc(C(N)[C@H](C)CC)nn3)CC2)n1 (stereo partly drawn)	4	2	nt	nt	8	3	i	nt
CC(=O)Nc1ccc(C(=O)N2CCCCC2c2cc(C(=O)NCc3cccnc3)no2)cc1 (stereo not drawn)	2	nt	0	2	nt	nt	nt	-6
CC(=O)c1c(N2CCN(CCO)CC2)nc(=S)n(-c2ccccc2)c1C	4	?	nt	nt	41	10	i	nt
CCc1ccccc1NC(=O)c1cc(C2CC2)on1	20	-9	-3	2	1	4	i	4
N#CC1=C(N)Oc2cc(O)ccc2C1c1cccnc1 (stereo not drawn)	-3	8	-111	5	-8	-10	nt	-1
CCCCC(=O)Nc1cc(C(=O)NCCc2ccccc2)ccc1Cl	nt	-9	0	5	-12	-5	i	-24
Cc1cc(C(=O)NCc2ccccc2Cl)c2ccccc2n1	6	2	-2	-3	-4	3	i	-5
Cc1nc(CS(=O)(=O)c2ccc(Cl)cc2)cc(Sc2ccc(Cl)cc2)n1	nt	-15	-5	-11	0	1	i	nt
CCCCOc1ccc(C(=O)Nc2ccc(OCC(=O)N3CCOCC3)cc2)cc1	nt	-14	3	-6	-4	-10	i	-9
N=c1n(Cc2ccc(Cl)cc2)c2ccccc2n1CC(O)COc1ccccc1 (stereo not drawn)	28	-8	-27	-20	4	3	i	1
COc1ccc(NC(=O)CSc2ccc(C)cc2)cc1	-46	2	5	0	-12	0	i	-3

Gathered by group: the entries above containing a carbonyl joined to an NH by a bond outside any ring (10)
SMILES	HIV Env fusion	eIF4H inh	MT1-MMP act inh	MT1-MMP act inh RFP	PABP polyA inh	CSC inhib	Rce1 inh	Yeast UUG start	others
O=C(N/N=C/c1ccc([N+](=O)[O-])o1)c1ccccc1NS(=O)(=O)c1cccs1	1	76	-8	-20	47*	4	i	-20	eIF4H inh retest=33;PABP polyA inh retest=91*
CC(C)C(NC(=O)C1CCCCC1)C(=O)Nc1ccncc1 (stereo not drawn)	nt	-5	3	5	-2	-5	i	3
CCOc1ccccc1NC(=O)CSc1nnc(-c2cccnc2)o1	-8	nt	2	2	nt	nt	i	-23
CCOC(=O)NN=C1CN(S(=O)(=O)c2ccc(C)cc2)C1	-6	-5	1	1	1	-15	nt	0
CC(=O)Nc1ccc(C(=O)N2CCCCC2c2cc(C(=O)NCc3cccnc3)no2)cc1 (stereo not drawn)	2	nt	0	2	nt	nt	nt	-6
CCc1ccccc1NC(=O)c1cc(C2CC2)on1	20	-9	-3	2	1	4	i	4
CCCCC(=O)Nc1cc(C(=O)NCCc2ccccc2)ccc1Cl	nt	-9	0	5	-12	-5	i	-24
Cc1cc(C(=O)NCc2ccccc2Cl)c2ccccc2n1	6	2	-2	-3	-4	3	i	-5
CCCCOc1ccc(C(=O)Nc2ccc(OCC(=O)N3CCOCC3)cc2)cc1	nt	-14	3	-6	-4	-10	i	-9
COc1ccc(NC(=O)CSc2ccc(C)cc2)cc1	-46	2	5	0	-12	0	i	-3

Further records.
SMILES	HIV Env fusion	eIF4H inh	MT1-MMP act inh	MT1-MMP act inh RFP	PABP polyA inh	CSC inhib	Rce1 inh	Yeast UUG start	others
O=C(CCCN1C(=O)C2C3C=CC(C3)C2C1=O)N1CCN(c2ccccc2)CC1 (stereo not drawn)	nt	-1	-5	-3	-6	-7	i	-6
COc1ccc(CC(=O)NC(c2ccccc2)c2ccc(C)cc2)c(OC)c1 (stereo not drawn)	2	-1	-13	-12	-5	-15	i	-10
Cc1c(C)n(CCc2ccccc2)c2ncnc(NCCCO)c12	-11	8	-3	-1	-4	17	i	nt
O=C(Nc1ccc2nc(-c3ccco3)c(-c3ccco3)nc2c1)NC1CC1	nt	99	-16	-11	-6	nt	i	-13	eIF4H inh retest=-6;PABP polyA inh retest=17
O=C1/C(=C/c2ccc(O)cc2)SC(=S)N1CC1CCCO1 (stereo not drawn)	-7	96	-22	0	55*	28	i	nt	eIF4H inh retest=39;PABP polyA inh retest=94*
Cn1c(NCCO)nc2c1c(=O)n(Cc1cccc(Cl)c1)c(=O)n2C	26	-9	-3	0	-1	3	i	-15
O=C(Nn1cnnc1)c1cc([N+](=O)[O-])cc([N+](=O)[O-])c1	nt	-5	5	6	-5	-11	i	4
c1cncc(CNc2ncnc3sccc23)c1	29	6	-3	-13	3	9	i	nt
CCCNC(=O)c1ccc2snnc2c1	nt	4	-2	-2	1	-11	i	-60
O=C(NCc1cccnc1)C(=O)NCC1OCCCN1S(=O)(=O)c1ccc(F)cc1 (stereo not drawn)	14	2	-2	3	1	-14	i	-8
CCc1cc2c(=O)c(-c3nc4ccccc4n3C)c(C)oc2c(CN2CCOCC2)c1O	nt	1	-3	0	6	0	i	-12
CC(=O)Nc1ccc(NC(=O)Nc2ccc3c(c2)N(C)C(=O)CS3)cc1	-5	-3	-11	-1	1	-16	i	nt
CCOC(=O)c1c(SC)n(-c2ccccc2)c(=S)n(-c2ccccc2)c1=O	11	-2	2	-1	7	-7	i	-14
C=CCN(C(=O)CCC(=O)Nc1cc(C)on1)C(C(=O)NC1CCCC1)c1ccc(OC)cc1OC (stereo not drawn)	5	-8	0	0	-4	nt	i	-3
CCCCCCCC1=NN(c2ccc(S(=O)(=O)O)cc2)C(=O)C1N=O (stereo not drawn)	-5	nt	3	-1	nt	nt	nt	4
O=C(CSc1ccccc1F)Nc1ccc2c(c1)OCO2	-45	nt	-4	0	nt	-1	nt	-9
Cc1ccc(SCn2nnc3ccccc3c2=O)c(C)c1	-44	-6	0	-1	6	-10	i	nt
CCOc1cc(/C=C/c2cc(C(=O)O)c3ccccc3n2)ccc1O	-9	-3	3	3	2	-28	i	-17
Cc1cc(NS(=O)(=O)c2ccc(NC(=O)c3cnc(Cl)c(Cl)c3)cc2)nc(C)n1	nt	nt	1	2	nt	-4	nt	-7
CCOC(=O)N1CCC(NC(=O)c2cc(S(=O)(=O)N(CC)CC)ccc2F)CC1	nt	-3	8	0	5	nt	i	-4
CCCCNC(=O)Nc1c(C(=O)OCC)[nH]c2ccccc12	nt	3	0	1	0	nt	i	-15
Cn1cc(CCC(=O)NCc2ccc(Cl)cc2)c2ccccc21	21	-14	8	6	13	-14	i	-19
CSc1ncccc1C(=O)OCC(=O)N(CC(C)C)C1CCS(=O)(=O)C1 (stereo not drawn)	-1	3	-7	-7	-5	-10	i	-16
O=C(CSc1ccccc1Cl)N1CCOCC1	-16	-10	-2	-1	-6	-7	i	-18
COc1ccccc1C(=O)NNC(=O)c1ccccc1F	-8	-1	-3	0	-9	-7	i	-33
COc1cccc(NC(=O)c2cc([N+](=O)[O-])ccc2NCc2cccnc2)c1	nt	-9	-5	-6	-12	-12	i	-3
O=C(NS(=O)(=O)c1ccccc1)c1ccccc1O	nt	-2	-3	3	11	-11	nt	-12
CCN(CC)c1ccc(/C=N/NC(=O)Cc2cccs2)c(O)c1	43	10	-3	-6	-5	29	i	-5
Cc1cc([N+](=O)[O-])nn1CC(=O)NCCCn1ccnc1	16	-4	3	4	-4	-4	i	3
COc1cc(/C=C/C(=O)NCc2cccnc2)cc(OC)c1OC	-54	0	7	9	0	-3	i	-12
NCCCCCc1nnc(SCC(=O)c2ccc(Cl)cc2)o1	-5	-2	-5	0	5	32	i	-6
O=C(COc1cc2oc(=O)cc(-c3ccccc3)c2cc1Cl)NCC1CCC(C(=O)O)CC1 (stereo not drawn)	nt	-5	2	5	11	-10	i	-3
COc1cc(C(=O)Nc2ccc3c(c2)OCCO3)ccc1OC(C)C	nt	-5	3	-1	2	-7	i	-12
O=C(CNC(=O)c1ccco1)OCc1ccccc1Cl	-5	nt	1	3	nt	4	nt	5
CCCCCCNC(=O)CC(NS(=O)(=O)c1ccc(OC)cc1)C(C)C (stereo not drawn)	nt	16	-2	0	-1	-9	i	nt
O=S(=O)(NC1CC1)c1ccc(S(=O)(=O)N(Cc2ccccn2)C2CCCC2)cc1	nt	-5	-1	-3	-1	-7	i	-7
COc1cccc(C(=O)N2CCN(S(=O)(=O)Cc3ccccc3)CC2)c1OC	?	-2	1	3	0	-4	i	-5
O=C(Cc1cn2ccsc2n1)Nc1nc2c(s1)CN(Cc1ccccc1)CC2	nt	0	-8	0	-3	1	i	-19
CN(C)C(CNC(C(=O)Nc1ccc([N+](=O)[O-])cc1Br)c1ccccc1)c1ccccc1 (stereo not drawn)	31	5	-1	0	10	3	i	nt
CC(OC(=O)C1CCCCC1)C(=O)Nc1cccc([N+](=O)[O-])c1 (stereo not drawn)	nt	nt	11	-10	nt	-16	nt	-8

In the list so far, these have a thiophene ring, fused or not:
SMILES	HIV Env fusion	eIF4H inh	MT1-MMP act inh	MT1-MMP act inh RFP	PABP polyA inh	CSC inhib	Rce1 inh	Yeast UUG start	others
O=C(N/N=C/c1ccc([N+](=O)[O-])o1)c1ccccc1NS(=O)(=O)c1cccs1	1	76	-8	-20	47*	4	i	-20	eIF4H inh retest=33;PABP polyA inh retest=91*
c1cncc(CNc2ncnc3sccc23)c1	29	6	-3	-13	3	9	i	nt
CCN(CC)c1ccc(/C=N/NC(=O)Cc2cccs2)c(O)c1	43	10	-3	-6	-5	29	i	-5

The list is partial. The share of hits here may be higher or lower than overall.
